Screening results (PubChem)
Epigenetic mod = epigenetic modulators derepressing GFP locus in mouse cells; mouse C127i GFP locus derepression, cytometry, 30 h; Potency, µM (highest dose often 46.1 µM), for inactives: top-dose GFP derepression (activation); 0.09% of 68,000 active; also: % of control where 0% means no effect
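Derepression screen: silenced CMV-GFP reporter in murine C127i cells, 30 h compound incubation at 37 C, washed cells imaged by laser-scanning cytometer to enumerate GFP-expressing objects of 20 to 120 um.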
Texas Red fluor = compounds fluorescent in Texas Red spectral region; Compound fluorescence, Texas Red channel, 547/618 nm; active compounds read high; AID 587; 0.06% of 59,000 active; max dye-equivalent concentration, M; in the data active = max dye-equivalent concentration above about 10 nM; inconclusive = between about 1.1 nM and that limit
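Spectral interference profiling: each compound concentration's relative fluorescence, read with a 547 nm excitation and 618 nm emission filter pair, was normalized to a per-plate Texas Red standard curve.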
FLuc inh = blocks Photinus pyralis firefly luciferase activity. P08659. purified firefly luciferase, luminescence, 8 min. Potency, µM (titrated, usually from 57.1 µM), for inactives: at the highest dose activity change, negative = inhibition, usual class: inhibitors. 2.2% of 72,000 active. AID 411; also: potency is read from the fitted curve at half-maximal effect; % is scaled to controls: 0 for no effect and ±100 for the full control effect; nearly all actives have a fitted effect of over 40% in size
Target sequence (P08659 whole entry, looked up): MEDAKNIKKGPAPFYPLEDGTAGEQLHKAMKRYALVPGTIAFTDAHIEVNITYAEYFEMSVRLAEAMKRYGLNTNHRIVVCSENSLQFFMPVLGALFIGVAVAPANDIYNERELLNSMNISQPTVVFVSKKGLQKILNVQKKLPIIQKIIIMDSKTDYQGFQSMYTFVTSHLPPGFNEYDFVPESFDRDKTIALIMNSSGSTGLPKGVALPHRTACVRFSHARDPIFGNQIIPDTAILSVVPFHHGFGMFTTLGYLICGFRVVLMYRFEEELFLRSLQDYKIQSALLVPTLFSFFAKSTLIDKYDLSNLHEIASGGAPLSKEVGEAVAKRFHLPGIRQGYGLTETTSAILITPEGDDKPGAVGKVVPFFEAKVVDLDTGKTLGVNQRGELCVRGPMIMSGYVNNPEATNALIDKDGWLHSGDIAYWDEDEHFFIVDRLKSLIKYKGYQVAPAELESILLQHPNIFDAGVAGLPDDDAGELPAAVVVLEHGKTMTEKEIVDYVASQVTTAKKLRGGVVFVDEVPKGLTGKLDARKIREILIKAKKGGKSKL
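Inhibition of light generation by firefly luciferase from ATP and luciferin was profiled with concentration-response curves per sample, ATP held at 10 uM within the enzyme's linear range. Plates were read by luminescence after an 8-minute ambient incubation.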
Ub-GFP proteasome = proteasome inhibitors stabilizing ubiquitin-GFP reporter; Ubiquitin-GFP reporter cells, proteasome inhibition, GFP fluorescence; response scale: untreated = 0%, 10 µM MG-132 = 100%; Potency, µM (titrated, usually from 45.9 µM), without a hit: at the top dose activation (GFP accumulation), most hits filed as activators; 67,000 tested, under 10 active; AID 526; active = well fitted activation curve with a large enough effect, not every such curve was filed as active; inconclusive = small, poorly fitted or top-dose-only effect, or another doubt; inactive = no such curve, though single readings can be large or run the other way; also: potency is read from the fitted curve at half-maximal effect
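Proteasome blockade was scored as a rise in GFP-expressing U2OS cells carrying a ubiquitin(G76V)-GFP construct, imaged after 4 hr compound treatment at 37 °C across a 46 uM–2.9 nM series.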
CRE-bla Fsk = modulators of forskolin-stimulated CRE signaling in CHO cells | CHO CRE-bla reporter (cAMP response element driving beta-lactamase), forskolin EC10, beta-lactamase ratio | 2.5% of 71,000 active | Potency, µM (series often up to 38.2 µM), for inactives: at the highest dose activity change, negative = inhibition, hits mostly activators; active = well fitted activation curve with a large enough effect in the signal ratio, with a control signal flat, not every such curve was filed as active; inconclusive = small, poorly fitted or top-dose-only effect, or effect the other way, or a change in a side signal; the % refers to the signal ratio; also: potency is read from the fitted curve at half-maximal effect; % of control where 0% means no effect
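CHO CRE-bla cells, overnight plating in Opti-MEM with 0.5% dialyzed FBS; cpd titration + EC10 NKH 477, 3 h 37 °C; CCF4 2 h RT; ex 405/em 460 vs 530 ratio → %Activity, AC50.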
HBB splicing = modulators of hemoglobin beta chain splicing | Potency, µM (series often up to 46.1 µM), inactives show at the highest dose activation, hits mostly activators | AID 925 | 0.06% of 65,000 active | HBB splicing reporter cell assay, activation; EGFP reporter with mutant IVS2-654 intron; response scale: normalised to 500 nM splice-correcting PNA; also: potency is read from the fitted curve at half-maximal effect; 0% is about no effect
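Compounds were applied for 2 days to HeLa EGFP-654 cells, 500/well in Optimem with 2% FCS. The reporter's EGFP is disrupted by mis-splicing of beta-globin intron IVS2-654. Readout: summed well GFP fluorescence from 488 nm laser scanning; reference was 500 nM antisense […] 654 PNA.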
Fluorescein fluor = compound fluoresces in the fluorescein spectral region; max fluorescein-equivalent concentration, M; Compound autofluorescence, 480/540 nm, fluorescein-equivalent; active compounds read high; 0.91% of 59,000 active; AID 593; in the data active = max fluorescein-equivalent concentration above about 10 nM; inconclusive = between about 1.1 nM and that limit
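Values reflect compound autofluorescence, normalized to fluorescein on the same plate and reported at each tested concentration. Conditions: 100 mM Tris pH 8.0, room temperature, 15 min, excitation 480 nm, emission 540 nm.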
ERK AVP inh = vasopressin-driven ERK pathway inhibition; 0.99% of 72,000 active; Potency, µM (doses to about 57.5 µM), inactives show top-dose activity, negative = inhibition, hits mostly inhibitors; HEK293-V1b, vasopressin-stimulated pERK AlphaScreen; also: potency is read from the fitted curve at half-maximal effect; % is scaled to controls: 0 for no effect and ±100 for the full control effect; nearly all actives have a fitted effect of over 55% in size
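qHTS, compounds titrated on V1b-expressing HEK293 cells. Preincubation 30 min at 37C, vasopressin 25 nM for 5 min, lysis 10 min, bead incubation 5 hr at room temperature.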
Numbers without * were called inactive; i = inactive; ? = inconclusive; . = no result given; [ ] = another dose, or the depositor's remark. Unless noted, calls follow the shape of the dose curve; as a rule, active = well fitted curve in the direction sought with a large enough effect; inconclusive = small, poorly fitted or top-dose-only effect, or another doubt; inactive = no such curve, though single readings can be large; an effect the other way counts as inactive or inconclusive. Some of the compounds tested; count on the stated rates, not on these rows.

Start of the listing, in advance, 13 compounds:
Short keys – A = Epigenetic mod; B = Texas Red fluor; C = FLuc inh; D = Ub-GFP proteasome; E = CRE-bla Fsk; F = HBB splicing; G = Fluorescein fluor; H = ERK AVP inh
> CC1CCCN(c2oc(-c3cccc4ccccc34)nc2C#N)C1 (stereo unspecified)
  A = -4%; B = ?; C = 0%; D = .; E = ?; F = 3.7%[0.369 µM]; G = i; H = 11%

> CN(C)c1ccc(-c2cncnc2NCCN2CCOCC2)cc1
  A = -3%[9.22 µM]; B = i; C = 2%[2.29 µM]; D = -4%; E = 17%; F = -0.2%; G = ?; H = -4%

> CC1CCN(C(=O)CSc2nnc(-c3ccc(S(=O)(=O)N4CCOCC4)cc3)n2C)CC1
  A = -3%; B = i; C = 2%; D = 5%; E = -2%; F = .; G = i; H = -9%

> Cc1ccc(Nc2nc(N)nc(CN3CCN(C(=O)c4ccco4)CC3)n2)cc1Cl
  A = -2%; B = i; C = -3%; D = 0%; E = ?; F = -0.4%[57.5 µM]; G = i; H = -3%

> CCc1ccc2[nH]cc(C(=O)OCCOC)c(=O)c2c1
  A = 4%; B = ?; C = -36%; D = 0%; E = ?; F = -4.3%; G = ?; H = -5%

> CCSc1ccccc1C(=O)NCCCn1ccnc1
  A = 2%; B = i; C = 1%; D = -3%; E = -4%; F = 1.5%; G = ?; H = -10%

> CCNc1ncc2nc(-c3ccc(F)cc3)c(=O)n(C)c2n1
  A = 0%[9.22 µM]; B = i; C = -10%[11.4 µM]; D = 18%; E = ?; F = -0.8%; G = ?; H = -11%

> CCOC(=O)c1cc2nc(Nc3ccc(OC)cc3)sc2s1
  A = 0%; B = i; C = -2%; D = -2%; E = ?; F = 3.2%; G = i; H = 12%

> Cc1ccc(S(=O)(=O)N(C)Cc2nc(-c3ccccn3)no2)cc1
  A = 3%; B = i; C = 1%; D = -5%; E = ?; F = -1.5%; G = i; H = -22%

> CC1=C(C(=O)Nc2ccccc2)C(c2cccnc2)n2nc(-c3cccnc3)nc2N1 (stereo unspecified)
  A = 4%; B = i; C = 0%; D = 5%; E = -3%; F = -0.1%; G = i; H = 13%

> CN(c1ccccc1)c1nc(-n2ccnc2)nc(-n2ccnc2)n1
  A = 0%; B = i; C = 1%; D = 10%; E = ?; F = -1.0%; G = i; H = ?

> C1CCC(n2nnnc2CN2CCN(C3CCCC3)CC2)CC1
  A = 0%; B = i; C = 2%; D = 1%; E = 4%; F = .; G = i; H = 4%

> CCOc1ccc(C(=O)NCCCn2ccnc2)cc1
  A = 5%; B = i; C = 1%; D = -7%; E = 0%; F = 0.9%; G = i; H = -3%

The list itself, previewed entries included:
Short keys – A = Epigenetic mod; B = Texas Red fluor; C = FLuc inh; D = Ub-GFP proteasome; E = CRE-bla Fsk; F = HBB splicing; G = Fluorescein fluor; H = ERK AVP inh
> CC1CCCN(c2oc(-c3cccc4ccccc34)nc2C#N)C1 (stereo unspecified)
  A = -4%; B = ?; C = 0%; D = .; E = ?; F = 3.7%[0.369 µM]; G = i; H = 11%

> CN(C)c1ccc(-c2cncnc2NCCN2CCOCC2)cc1
  A = -3%[9.22 µM]; B = i; C = 2%[2.29 µM]; D = -4%; E = 17%; F = -0.2%; G = ?; H = -4%

> CC1CCN(C(=O)CSc2nnc(-c3ccc(S(=O)(=O)N4CCOCC4)cc3)n2C)CC1
  A = -3%; B = i; C = 2%; D = 5%; E = -2%; F = .; G = i; H = -9%

> Cc1ccc(Nc2nc(N)nc(CN3CCN(C(=O)c4ccco4)CC3)n2)cc1Cl
  A = -2%; B = i; C = -3%; D = 0%; E = ?; F = -0.4%[57.5 µM]; G = i; H = -3%

> CCc1ccc2[nH]cc(C(=O)OCCOC)c(=O)c2c1
  A = 4%; B = ?; C = -36%; D = 0%; E = ?; F = -4.3%; G = ?; H = -5%

> CCSc1ccccc1C(=O)NCCCn1ccnc1
  A = 2%; B = i; C = 1%; D = -3%; E = -4%; F = 1.5%; G = ?; H = -10%

> CCNc1ncc2nc(-c3ccc(F)cc3)c(=O)n(C)c2n1
  A = 0%[9.22 µM]; B = i; C = -10%[11.4 µM]; D = 18%; E = ?; F = -0.8%; G = ?; H = -11%

> CCOC(=O)c1cc2nc(Nc3ccc(OC)cc3)sc2s1
  A = 0%; B = i; C = -2%; D = -2%; E = ?; F = 3.2%; G = i; H = 12%

> Cc1ccc(S(=O)(=O)N(C)Cc2nc(-c3ccccn3)no2)cc1
  A = 3%; B = i; C = 1%; D = -5%; E = ?; F = -1.5%; G = i; H = -22%

> CC1=C(C(=O)Nc2ccccc2)C(c2cccnc2)n2nc(-c3cccnc3)nc2N1 (stereo unspecified)
  A = 4%; B = i; C = 0%; D = 5%; E = -3%; F = -0.1%; G = i; H = 13%

> CN(c1ccccc1)c1nc(-n2ccnc2)nc(-n2ccnc2)n1
  A = 0%; B = i; C = 1%; D = 10%; E = ?; F = -1.0%; G = i; H = ?

> C1CCC(n2nnnc2CN2CCN(C3CCCC3)CC2)CC1
  A = 0%; B = i; C = 2%; D = 1%; E = 4%; F = .; G = i; H = 4%

> CCOc1ccc(C(=O)NCCCn2ccnc2)cc1
  A = 5%; B = i; C = 1%; D = -7%; E = 0%; F = 0.9%; G = i; H = -3%

> O=C(CN1c2cccc3cccc(c23)S1(=O)=O)N1CCOCC1
  A = 3%; B = i; C = -5%; D = 1%; E = -17%; F = -0.3%; G = 3.7e-08M*; H = -18%

> Cn1nnc2cc(C(=O)NC3CCCCC3)ccc21
  A = 2%; B = i; C = 3%; D = 8%; E = 1%; F = 0.2%; G = ?; H = -8%

> COCCNC(=O)c1c(N)n(-c2cccc(C)c2)c2nc3ccccc3nc12
  A = -3%; B = i; C = -2%; D = 0%; E = 10µM*; F = 0.2%; G = i; H = 9%

> COC(=O)c1ccccc1NC(=O)COc1ccc(S(=O)(=O)N2CCCC2)cc1C
  A = -3%; B = i; C = -1%; D = -1%; E = ?; F = -0.7%; G = ?; H = -8%

> CCNc1ncc2nc(-c3cccc(C#N)c3)c(=O)n(C)c2n1
  A = 0%[9.22 µM]; B = i; C = -3%[11.4 µM]; D = 0%; E = 2µM*; F = 2.5%; G = i; H = -10%

> Cn1ncc2c1ncn1c(-c3ccccc3Cl)nnc21
  A = 2%; B = i; C = 1%; D = -4%; E = 9%; F = .; G = i; H = -2%

> CCCNC(=O)CCC(=O)Nc1ncc(-c2ccc(C)cc2)n1C
  A = 3%; B = ?; C = -2%; D = 1%; E = -7%; F = -0.9%; G = ?; H = 10%

> COc1ccc(-c2cc3ccccc3oc2=O)cc1NC(=O)c1ccc(Br)o1
  A = -1%; B = i; C = 1%; D = 2%; E = ?; F = -1.4%; G = ?; H = -2%

> CCOC(=O)N1CCN(C(=O)CN(C2CCCCC2)S(C)(=O)=O)CC1
  A = -3%; B = i; C = -2%; D = -4%; E = 1%; F = -1.4%; G = ?; H = 10%

> CCC1c2ccc(C)n2CCN1C(=O)Nc1ccc(F)cc1 (stereo unspecified)
  A = 1%; B = i; C = -14%; D = -5%; E = 12%; F = -0.4%; G = ?; H = -1%

> O=S(=O)(Nc1cccnc1)c1ccc2c(c1)OCCO2
  A = 2%; B = i; C = 2%; D = 3%; E = ?; F = 1.0%; G = ?; H = -27%

> CCOC(=O)CSc1cc(C)nc(NC(C)=O)n1
  A = -1%; B = i; C = 3%; D = -3%; E = -1%; F = .; G = i; H = -10%

> COc1ccc(Cl)cc1-c1nc(-c2ccc(NC(=O)c3ccncc3)cc2)no1
  A = 0%; B = i; C = 4%; D = -4%; E = 21%; F = -0.8%; G = ?; H = -21%

> C=CCSc1n[nH]c(-c2ccc(OC)cc2)n1
  A = 11%; B = i; C = ?; D = -3%; E = 15%; F = 0.3%; G = ?; H = -24%

> COc1ccc(OC)c(-n2c(-c3cccc(O)c3)n[nH]c2=S)c1
  A = 0%; B = i; C = -1%; D = 1%; E = 9%; F = -0.1%; G = i; H = 16%
